# UUG fidelity = yeast start codon fidelity modulation; S. cerevisiae UUG-firefly luciferase reporter, luminescence/redox ratio; activity score, % at 18.7 µM; hit rate 0.13% among 350,000;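 active means replicate mean at a twofold rise or more, about +100% in these data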;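 further: firefly luciferase made from a UUG start codon reports start codon fidelity; reporter light over untreated wells divided by growth signal over untreated wells; some hits fall short of that in this replicate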
# Env fusion inh = HIV envelope-mediated fusion inhibition. hit rate 1.1% among 360,000. inhibition, % at 12.3 µM. HeLa-JRFL Env/CEM21 cell fusion, luciferase;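 active means mean replicate inhibition score of at least 50 and every replicate individually at or above 50; inconclusive means only one of the two criteria met; inactive means mean below 50 and not all replicates reaching 50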;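 further: 0% = plate neutral controls and 100% = maraviroc near 300 nM; one replicate is shown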
# * hit, by the source's call; ? = inconclusive; [ ] = dose if it differs, or a comment. An excerpt; count on the stated rates, not on these rows.
smiles	UUG fidelity	Env fusion inh
C[C@@H]1CCCCO[C@H](CN(C)C(=O)CCCN(C)C)[C@H](C)CN([C@@H](C)CO)C(=O)c2cc(NC(=O)c3ccncc3)ccc2O1	-2	0[16.7 µM]
COc1ccc(-c2cnc3c(c2)C(=O)N([C@@H](C)CO)C[C@H](C)[C@@H](CN(C)C)O3)cc1	-2	-5[16.7 µM]
C[C@H]1CN([C@@H](C)CO)C(=O)Cc2cc(NC(=O)C3CC3)ccc2O[C@@H]1CN(C)Cc1ccc(-c2ccccc2)cc1	-3	-8[16.7 µM]
Cc1ccc(S(=O)(=O)N(C)C[C@H]2Oc3ccc(NC(=O)Nc4ccc(F)cc4)cc3CC(=O)N([C@H](C)CO)C[C@H]2C)cc1	-13	21[16.7 µM]
C[C@H]1CN([C@@H](C)CO)C(=O)Cc2cc(NC(=O)C3CCCCC3)ccc2O[C@H]1CN(C)S(C)(=O)=O	-1	6[16.7 µM]
O=C(C[C@H]1C=C[C@H](NC(=O)Nc2ccc(C(F)(F)F)cc2)[C@H](CO)O1)NCCN1CCCC1	-12	-22[16.7 µM]
C[C@@H]1CN([C@H](C)CO)C(=O)Cc2cc(NS(=O)(=O)c3cccs3)ccc2O[C@@H]1CN(C)C(=O)Nc1ccc(F)cc1	-7	-8[16.7 µM]
COc1ccc(NC(=O)N[C@H]2CC[C@@H](CCn3cc(-c4ccccc4)nn3)O[C@@H]2CO)cc1	-11	8[16.7 µM]
O=C(N[C@@H]1CC[C@H](CCNS(=O)(=O)c2ccc(F)cc2)O[C@H]1CO)c1cccnc1	-3	-8[16.7 µM]
Cc1ccc(S(=O)(=O)Nc2ccc3c(c2)C(=O)N([C@@H](C)CO)C[C@H](C)[C@@H](CN(C)C(=O)Nc2c(C)noc2C)OCCCC[C@H](C)O3)cc1	-8	-19[16.7 µM]
CO[C@H]1CN(C)C(=O)c2cc(NS(=O)(=O)CC(F)(F)F)ccc2OC[C@H](C)NC[C@@H]1C	-20	-5[16.7 µM]
C[C@H]1CCCCO[C@@H](CN(C)Cc2ccc(C(=O)O)cc2)[C@@H](C)CN([C@@H](C)CO)C(=O)c2cc(NC(=O)c3ccccc3)ccc2O1	-5	-49[16.7 µM]
[N-]=[N+]=NCc1ccccc1C[C@@]1(C(=O)N2CCCCC2)N=C(c2ccc(OCCCO)cc2)O[C@@H]1c1ccccc1	-13	26[16.7 µM]
O=C(C[C@@H]1CC[C@@H](NC(=O)Nc2ccccc2)[C@H](CO)O1)NCc1ccccn1	-16	-8[16.7 µM]
CCCN(C)C[C@H]1Oc2cc(C#CC(C)C)ccc2S(=O)(=O)N([C@@H](C)CO)C[C@H]1C	15	-26[16.7 µM]
C/C=C/c1cnc2c(c1)C(=O)N([C@H](C)CO)C[C@H](C)[C@H](CN(C)C(=O)Cc1ccccc1)O2	2	-2[16.7 µM]
CC(C)NC(=O)N(C)C[C@@H]1Oc2cc(-c3ccncc3)ccc2S(=O)(=O)N([C@H](C)CO)C[C@@H]1C	-4	-13[16.7 µM]
C[C@H](NC(=O)C[C@@H]1C=C[C@@H](NC(=O)C2CCOCC2)[C@@H](CO)O1)c1ccccc1	-18	3[16.7 µM]
CC(C)CC#Cc1ccc2c(c1)O[C@H](CN(C)Cc1ccc(F)cc1)[C@H](C)CN([C@@H](C)CO)S2(=O)=O	9	21[16.7 µM]
C[C@@H]1CCCCO[C@H](CN(C)C(=O)Cc2ccccc2)[C@@H](C)CN([C@@H](C)CO)C(=O)c2cc(NC(=O)NC3CCCCC3)ccc2O1	4	-32[16.7 µM]
C[C@H](CO)N1C[C@H](C)[C@@H](CN(C)C(=O)C2CCCCC2)Oc2ncc(C#CC(C)(C)O)cc2C1=O	7	-3[16.7 µM]
C[C@@H]1CN([C@@H](C)CO)C(=O)c2cc(-c3ccncc3)cnc2O[C@H]1CN(C)C(=O)Nc1ccc2c(c1)OCO2	-1	4[16.7 µM]
COc1ccc(-c2ccc([C@H]3[C@@H](CO)N(C(=O)C4CC4)[C@H]3C#N)cc2)cc1	41	-19[16.7 µM]
CN(C)CC(=O)Nc1ccc2c(c1)[C@H]1C[C@@H](CC(=O)NCc3ccccn3)O[C@H](CO)[C@H]1O2	-20	5[16.7 µM]
Cc1ccc(S(=O)(=O)N(C)C[C@@H]2OCCCC[C@@H](C)Oc3ccc(NC(=O)c4ccncc4)cc3C(=O)N([C@H](C)CO)C[C@@H]2C)cc1	-13	-3[16.7 µM]
C[C@@H]1CN([C@@H](C)CO)C(=O)c2cc(C#CC3CCCCC3)cnc2O[C@@H]1CN(C)S(=O)(=O)c1ccccc1	2	52[16.7 µM]
COc1cccc(S(=O)(=O)N[C@H]2CC[C@@H](CCn3cc(-c4ccccn4)nn3)O[C@H]2CO)c1	-27	9[16.7 µM]
C[C@H](CO)N1C[C@H](C)[C@H](CN(C)Cc2ccc(C(F)(F)F)cc2)OCCCC[C@H](C)Oc2ccc(NC(=O)Nc3cccc4ccccc34)cc2C1=O	-7	?
Cc1noc(C)c1NC(=O)N(C)C[C@H]1OCCCC[C@H](C)Oc2ccc(NC(=O)Cc3ccccc3)cc2C(=O)N([C@@H](C)CO)C[C@@H]1C	-1	-10[16.7 µM]
C[C@@H]1CCCCO[C@@H](CN(C)S(=O)(=O)c2ccc(F)cc2)[C@@H](C)CN([C@@H](C)CO)C(=O)c2cc(NC(=O)Nc3ccc(C(F)(F)F)cc3)ccc2O1	-13	26[16.7 µM]
C[C@@H]1CN([C@H](C)CO)C(=O)c2cc(C#Cc3ccccc3)cnc2O[C@H]1CN(C)C(=O)c1ccccn1	-3	40[16.7 µM]
CCC(=O)Nc1ccc2c(c1)C(=O)N(C)C[C@H](OC)[C@@H](C)CN(Cc1ccccn1)[C@@H](C)CO2	-21	-8[16.7 µM]
COc1ccc(S(=O)(=O)Nc2ccc3c(c2)C(=O)N([C@H](C)CO)C[C@@H](C)[C@@H](CN(C)C(=O)C2CCCCC2)OCCCC[C@@H](C)O3)cc1	19	8[16.7 µM]
CO[C@H]1CN(C)C(=O)c2ccc(NC(=O)Nc3ccccc3F)cc2OC[C@@H](C)NC[C@H]1C	-3	10[16.7 µM]
C/C=C/c1ccc2c(c1)O[C@H](CN(C)C(=O)c1cccc(F)c1)[C@H](C)CN([C@H](C)CO)S2(=O)=O	-3	18[16.7 µM]
COc1ccc(NC(=O)Nc2ccc3c(c2)C(=O)N([C@H](C)CO)C[C@@H](C)[C@H](CN(C)Cc2ccccc2)O3)cc1	-12	22[16.7 µM]
C[C@@H]1CCCCO[C@H](CN(C)C(=O)c2ccccc2)[C@H](C)CN([C@@H](C)CO)C(=O)c2cc(NC(=O)Nc3cccc4ccccc34)ccc2O1	6	-40[16.7 µM]
C[C@H](CO)N1C[C@H](C)[C@@H](CN(C)CC2CCCCC2)Oc2ccc(NC(=O)Cn3cnnn3)cc2CC1=O	-5	-14[16.7 µM]
C[C@H]1CN([C@@H](C)CO)C(=O)c2cc(Br)cnc2O[C@@H]1CN(C)Cc1ccccn1	-15	-16[16.7 µM]
Cc1noc(C)c1NC(=O)N(C)C[C@@H]1Oc2ncc(C#CC(C)C)cc2C(=O)N([C@@H](C)CO)C[C@H]1C	7	-1[16.7 µM]
Cc1noc(C)c1S(=O)(=O)N(C)C[C@@H]1OCCCC[C@@H](C)Oc2ccc(NC(=O)Nc3cccc4ccccc34)cc2C(=O)N([C@@H](C)CO)C[C@H]1C	-13	-12[16.7 µM]
C[C@H]1CN([C@@H](C)CO)S(=O)(=O)c2ccc(C3=CCCC3)cc2O[C@@H]1CN(C)C(=O)c1ccccn1	-7	0[16.7 µM]
C[C@H]1CN([C@@H](C)CO)S(=O)(=O)c2ccc(-c3ccc(C(=O)N(C)C)cc3)cc2O[C@@H]1CN(C)C(=O)Nc1ccccc1F	29	2[16.7 µM]
O=C(NCC[C@H]1CC[C@H](NC(=O)C2CCCC2)[C@H](CO)O1)c1cc(Cl)cc(Cl)c1	0	-14[16.7 µM]
C[C@@H]1CN([C@@H](C)CO)S(=O)(=O)c2ccc(C3=CCCC3)cc2O[C@H]1CN(C)C	-13	27[16.7 µM]

# Compound profiles (already shown). Order of values: UUG fidelity | Env fusion inh
# C[C@H]1CN([C@@H](C)CO)C(=O)c2cc(Br)cnc2O[C@@H]1CN(C)Cc1ccccn1 across the screens: -15 | -16[16.7 µM]
# C/C=C/c1ccc2c(c1)O[C@H](CN(C)C(=O)c1cccc(F)c1)[C@H](C)CN([C@H](C)CO)S2(=O)=O across the screens: -3 | 18[16.7 µM]
# CCC(=O)Nc1ccc2c(c1)C(=O)N(C)C[C@H](OC)[C@@H](C)CN(Cc1ccccn1)[C@@H](C)CO2 across the screens: -21 | -8[16.7 µM]

# Following part
smiles	UUG fidelity	Env fusion inh
CCCC#Cc1cnc2c(c1)C(=O)N([C@@H](C)CO)C[C@H](C)[C@H](CN(C)C(=O)CN1CCOCC1)O2	-3	-15[16.7 µM]
COc1ccc(NC(=O)N(C)C[C@H]2Oc3ccc(NC(=O)CCC(F)(F)F)cc3CC(=O)N([C@@H](C)CO)C[C@H]2C)cc1	1	16[16.7 µM]
COc1ccccc1-c1cn(CC[C@H]2CC[C@@H](NC(=O)C3CCC3)[C@H](CO)O2)nn1	-1	5[16.7 µM]
CN(C)CCCNC(=O)C[C@H]1CC[C@@H](NC(=O)c2ccccc2F)[C@H](CO)O1	-29	4[16.7 µM]
C[C@H](CO)N1C[C@H](C)[C@@H](CN(C)C(=O)Nc2ccccc2)OCCCC[C@H](C)Oc2ccc(NC(=O)c3ccccc3)cc2C1=O	-3	-52[16.7 µM]
O=C(NCC[C@H]1CC[C@@H](NS(=O)(=O)Cc2ccccc2)[C@H](CO)O1)C1CCCC1	12	-12[16.7 µM]
C[C@@H]1CN([C@H](C)CO)C(=O)Cc2cc(NC(=O)Nc3ccc(F)cc3)ccc2O[C@H]1CN(C)Cc1ccc(C(=O)O)cc1	-5	9[16.7 µM]
Cc1noc(C)c1NC(=O)Nc1cccc2c1O[C@H](CN(C)Cc1ccc(C(F)(F)F)cc1)[C@H](C)CN([C@H](C)CO)C2=O	8	-22[16.7 µM]
C[C@@H]1CN([C@@H](C)CO)C(=O)c2cc(NC(=O)c3ccncc3)ccc2O[C@@H](C)CCCCO[C@@H]1CN(C)S(=O)(=O)c1cccs1	8	12[16.7 µM]
COc1ccc(S(=O)(=O)Nc2ccc3c(c2)C(=O)N([C@@H](C)CO)C[C@H](C)[C@@H](CN(C)S(=O)(=O)c2ccc(Cl)cc2)OCCCC[C@H](C)O3)cc1	8	17[16.7 µM]
O=C(Nc1ccc(F)cc1)N[C@H]1CC[C@H](CCNC(=O)c2cc(Cl)cc(Cl)c2)O[C@H]1CO	-6	7[16.7 µM]
O=C(C[C@@H]1C[C@@H]2c3cc(NS(=O)(=O)c4ccc(F)cc4)ccc3O[C@@H]2[C@@H](CO)O1)NCc1ccccc1	27	7[16.7 µM]
Cc1noc(C)c1NC(=O)N(C)C[C@H]1Oc2ccc(NS(=O)(=O)c3c(C)noc3C)cc2CC(=O)N([C@@H](C)CO)C[C@@H]1C	-5	-1[16.7 µM]
CCNC(=O)Nc1ccc2c(c1)C(=O)N(C)[C@H]1CC[C@H](CC(=O)Nc3ccccc3Cl)O[C@@H]1CO2	13	3[16.7 µM]
CC(=O)N(C)C[C@H]1Oc2ncc(C#CC(C)(C)O)cc2C(=O)N([C@@H](C)CO)C[C@H]1C	-5	-24[16.7 µM]
C[C@@H]1CCCCO[C@@H](CN(C)Cc2ccc3c(c2)OCO3)[C@H](C)CN([C@H](C)CO)C(=O)c2cc(NC(=O)NC3CCCCC3)ccc2O1	8	17[16.7 µM]
C[C@H](CO)N1C[C@H](C)[C@H](CN(C)C(=O)c2ccncc2)Oc2cc(C#Cc3ccncc3)ccc2S1(=O)=O	-10	-19[16.7 µM]
CC1=CC2(CO)C(=O)[C@]3(CO3)[C@H]1[C@H]1[C@]2(C)C=C(CO)C(=O)[C@]12CO2	12	1[16.7 µM]
C[C@@H]1CN([C@H](C)CO)S(=O)(=O)c2ccc(C#Cc3ccccn3)cc2O[C@H]1CN(C)C(=O)C1CC1	22	-4[16.7 µM]
Cc1noc(C)c1NC(=O)N(C)C[C@H]1Oc2ccc(NC(=O)Nc3ccc4c(c3)OCO4)cc2CC(=O)N([C@@H](C)CO)C[C@H]1C	-7	4[16.7 µM]
NCC[C@@H]1CC[C@@H](NC(=O)NC2CCCCC2)[C@@H](CO)O1	2	0[16.7 µM]
CN1C[C@@H](O)COC[C@@H]2O[C@H](CC(=O)N3CCN(c4ccccc4)CC3)CC[C@H]21	-5	4[16.7 µM]
CCC(=O)Nc1ccc2c(c1)C(=O)N(C)C[C@@H](OC)[C@H](C)CN(Cc1ccccn1)[C@@H](C)CO2	-24	0[16.7 µM]
C[C@H](CO)N1C[C@H](C)[C@H](CN(C)S(=O)(=O)c2ccc(Cl)cc2)Oc2ccc(NS(C)(=O)=O)cc2CC1=O	-13	-1[16.7 µM]
C[C@@H]1CCCCO[C@H](CN(C)C(=O)CCCN(C)C)[C@H](C)CN([C@@H](C)CO)C(=O)c2cc(NC(=O)Nc3ccccc3)ccc2O1	6	-8[16.7 µM]
CCC(=O)N[C@H]1CC[C@@H](CC(=O)NCc2cc(F)cc(F)c2)O[C@H]1CO	-6	-2[16.7 µM]
C[C@@H]1CN([C@@H](C)CO)C(=O)c2cccc(NC(=O)c3ccc(-c4nccs4)cc3)c2O[C@H]1CN(C)C(=O)Nc1ccccc1	-5	-15[16.7 µM]

# Screens (PubChem)
